Screening data from PubChem.
AmpC nodet inh: inhibitors of E. coli AmpC beta-lactamase without detergent | Potency, µM (highest dose often 28.7 µM), for inactives: at the highest dose activity change, negative = inhibition | AmpC nitrocefin hydrolysis, absorbance 480 nm, no detergent; potencies from a single point are estimates | 1.8% of 71,000 active | P00811 | AID 585; active = falling curve, for most hits resting on a single point; inconclusive = weak or doubtful change; inactive = flat or rising curve; note: % of control where 0% means no effect; about half of the hits show no inhibition at the top dose; a quarter of the inactives give rising signals
Target sequence (P00811 whole entry, looked up): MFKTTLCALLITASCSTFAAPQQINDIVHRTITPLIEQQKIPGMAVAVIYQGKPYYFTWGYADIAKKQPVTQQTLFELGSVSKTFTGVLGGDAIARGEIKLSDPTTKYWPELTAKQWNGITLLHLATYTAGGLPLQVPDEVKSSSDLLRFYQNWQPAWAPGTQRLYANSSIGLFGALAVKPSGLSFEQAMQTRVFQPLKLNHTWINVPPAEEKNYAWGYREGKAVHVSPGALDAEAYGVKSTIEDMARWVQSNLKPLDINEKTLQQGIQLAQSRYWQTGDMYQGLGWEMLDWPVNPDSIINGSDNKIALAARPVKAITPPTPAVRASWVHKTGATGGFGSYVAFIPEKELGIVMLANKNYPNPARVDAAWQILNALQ
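Enzyme, pH 7.0 phosphate. Compound titrations were pre-incubated with AmpC for 15 min at room temperature before nitrocefin (stock 800 uM) addition; product formation was recorded at 480 nm every 20 s for 4 min.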
* marks the source's active call; other numbers are inactive results; ? = inconclusive; & = joins results of further samples; [ ] = another dose, or the depositor's remark. Potency is the fitted concentration of half-maximal effect.

SMILES	AmpC nodet inh
Cc1cc(C)n(C(=O)CCCC(=O)n2nc(C)cc2C)n1	14%
Cc1ccc(-c2csc(N(CCCN3CCOCC3)C(=O)c3ccco3)n2)cc1	138%
COC(=O)CSc1nc(NCC(C)C)nc(N2CCOCC2)n1	27%
O=C1CN(/N=C\c2ccc([N+](=O)[O-])o2)C(=O)N1	-2%[12.8 µM]
CCCn1c(Nc2nc3ccccc3n2C)nc2ccccc21	-13%
COCCN1C(=O)c2ccccc2C(C(=O)NCCCN2CCCC2=O)C1c1c[nH]c2ccccc12 (centres undefined)	54%
Cc1cc(Cl)c(S(=O)(=O)N2CC(C)OC(C)C2)cc1OCC(N)=O (centres undefined)	20%
O=C(O)CCCC(=O)Nc1ccccc1C(=O)N1CCCC1	0%
Cn1nnnc1SCCNCc1ccncc1	-14%
COc1ccc(-c2nnc(NC(=O)c3ccc(S(=O)(=O)N4CCCc5ccccc54)cc3)o2)cc1	13µM*
O=C(Nc1ccc(NC(=O)C2CC2)nc1)c1cccnc1	-10%
Cn1c(=O)oc2cc(S(=O)(=O)NCCc3ccccc3)ccc21	7%
CC(=O)c1ccccc1NC(=O)C1C2CCC(O2)C1C(=O)O (centres undefined)	13%
O=C(Nc1cccc(-c2cn3ccccc3n2)c1)c1cnccn1	14%
Cc1nc2ccccc2nc1N1CCCC1	-5%[5.75 µM]
O=C(COc1ccccc1)N1CCN(C(=O)Cc2ccccc2)CC1	22%
CCOc1ccccc1N(CC(=O)NC1CCCCC1)C(=O)CCCC(=O)Nc1ccccn1	72%
Cc1nc2ccc(-c3ccccc3)cc2o1	1%
Cc1ccc(N2CCN(CC3CC=CCC3)CC2)cc1 (centres undefined)	1%
Cc1nn(-c2ccccn2)c2nc(-c3cccs3)cc(C(=O)N3CCOCC3)c12	113%
COc1ccc(-c2ccc(-c3nnn(CC(=O)N4CCOCC4)n3)cc2)cc1	15%
CC1CCCN(C(C(=O)Nc2ccc3c(c2)OCCO3)c2ccccc2)C1 (centres undefined)	22%
CCOC(=O)N1CCN(C(=O)CSCc2nc(-c3ccccc3C)oc2C)CC1	129%
CCSC(=Nc1ccccc1)C1=C(O)COC1=O	2%
COc1ccc(C(=O)CN2C(=O)c3ccccc3C2=O)c(OC)c1C	25%
COc1ccc(Cl)c(NC(=O)NCCN2CCN(c3ccccc3)CC2)c1	6%
CC(C)(C)c1cc(CN2CCN(CCC#N)CC2)cc(C(C)(C)C)c1O	36%
O=C(CN1C(=O)CSC1=O)Nc1ccccc1F	-5%
Cc1cccc(CCNC(=O)c2nnc(Cc3ccc(Cl)cc3)o2)c1	9%
CN(C)c1nc(OCCNC(=O)COc2ccc(Cl)cc2Cl)nc(N2CCOCC2)n1	123%
OC1(CN2CCOCC2)C2CC3CC(C2)CC1C3 (centres undefined)	0%
Cc1nn(-c2ccccc2)c2c1C1(C(=O)N(C)c3ccccc31)C(C#N)=C(N)O2 (centres undefined)	30%
O=C(NCCN1CCOCC1)c1ccc2c(c1)N(Cc1ccc(F)cc1)C(=O)CS2	-1%
O=C(CSc1nc2c(cnn2-c2ccc(F)cc2)c(=O)[nH]1)N1CCCCCC1	4%
Cc1nn(Cc2ccccc2)c(Cl)c1C(=O)OCc1nnc(-c2ccc(Cl)cc2)o1	0%
O=C(c1cnccn1)N1CCC2(CC1)CCN(c1ncccn1)CC2	13%
CNc1ccccc1-n1ccc(-c2ccccc2)n1	-9%
COc1cc(C2=NOC(C(=O)NC3CCCCC3)C2)cc(OC)c1OC (centres undefined)	50%
Cc1cc(C(=O)OCC(=O)NCc2ccco2)c(C)n1-c1ccc(F)cc1	30%
O=C(CSc1nnc(-c2ccccc2O)o1)N1CCc2ccccc2C1	2%
COc1ccccc1NC(=O)c1cc(Sc2nncn2C)nc2ccccc12	45%
Cc1noc(C)c1CSc1nc2ccccc2nc1NS(=O)(=O)c1ccc(Cl)cc1	-11%
CCCOc1ccc(N2C(=O)CC(N3CCCC(C(=O)N4CCCC4)C3)C2=O)cc1 (centres undefined)	46%
N#Cc1cccc(-c2nccc(-n3ccnc3)n2)c1	12%
CCc1nc2ccccc2n1CC(=O)N(C(C)CC)C1CCS(=O)(=O)C1 (centres undefined)	0%
Cc1onc(-c2ccccc2Cl)c1C(=O)NCCn1c(C)cc2ccccc21	3%
CSc1cccc(NC(=O)COc2ccccc2)c1	-12%
O=C(O)/C=C\[C@H](O)c1ccc(Cl)cc1	-12%
CC1(C)CC2CC(C)(CN2C(=O)C23CCC(C)(C(=O)O2)C3(C)C)C1 (centres undefined)	68%
O=C(O)CN1CCN(Cc2ccc(F)cc2Cl)C1=O	-5%
CC(=O)C(Sc1nn(C)c(=S)s1)C(=O)Nc1ccccc1 (centres undefined)	-10%
COc1ccccc1-c1noc(CCC(=O)Nc2cccc(C)c2)n1	24%
CC(=O)Nc1coc2ccc(Br)cc12	10%
O=C(COC(=O)C1CC(=O)N(c2ccc3c(c2)OCCO3)C1)NC1CCCc2ccccc21 (centres undefined)	65%
Cc1cc(NC(=O)c2ccco2)ncc1NC(=O)CCc1ccccc1	35%
CCN(CC)CCCC(C)n1c(-c2ccccc2)nc2c(NCCOC)nc(C)nc21 (centres undefined)	10%
COc1ccc(-n2c(Cc3cccn3C)nnc2SCC(=O)Nc2ccccc2F)cc1	78%
NC(=O)c1cc(S(=O)(=O)Nc2cccc(F)c2)co1	-12%
CC(=O)N1C(=O)N(C)C2C1N(C)C(=O)N2C(C)=O (centres undefined)	-8%
CCOC(=O)c1cccc(NC(=O)CN(c2ccc(C)cc2)S(=O)(=O)c2c(C)n[nH]c2C)c1	41%

Retrieved by compound from the list above (2):
SMILES	AmpC nodet inh
O=C(c1cnccn1)N1CCC2(CC1)CCN(c1ncccn1)CC2	13%
CCOc1ccccc1N(CC(=O)NC1CCCCC1)C(=O)CCCC(=O)Nc1ccccn1	72%

New compounds follow
SMILES	AmpC nodet inh
O=C(NC1CCN(Cc2ccccc2)CC1)C1CCCN(S(=O)(=O)c2cccc3nonc23)C1 (centres undefined)	50%
CNc1nc(-c2cccc(C#N)c2)nc2ccccc12	-5%
C[C@@H]1CNCCN1S(=O)(=O)c1cccc2cnccc12	-2%&-6%&-11%
CCCC(=O)Nc1c(C(=O)OCC)[nH]c2ccccc12	6%
O=S(=O)(c1ccccc1)N1CCC2(CCN(C(c3ccccc3)c3ccccc3)CC2)CC1	36%
CCN(CC)CCNC(=O)Cn1cnc2sc(C)c(S(=O)(=O)N3CCOCC3)c2c1=O	-17%
O=C(CSc1nnc(CSc2nc3ccccc3s2)o1)NC1CCCCC1	12%
CCOC(=O)N1CCN(c2c(N3CCC(N4CCCCC4)CC3)c(=O)c2=O)CC1	4µM*[single pt active]
CNNCc1ccc(C(=O)NC(C)C)cc1	-8%[12.8 µM]
Cc1sc2nc(CN(C(=O)c3cccs3)C3CCCC3)[nH]c(=O)c2c1C	21%
COc1cc2c(cc1OC)C(C)N(C(=O)c1cc3ccccc3o1)CC2 (centres undefined)	100%
CC1(C)CC(=O)C2=C(C1)N(c1ccc(F)cc1)C(=O)CC2c1cccnc1 (centres undefined)	20%
Cn1c(=O)[nH]c(=O)c2c1nc(Br)n2CCCO	-2%
Cc1cc(NC(=O)c2ccc3c(c2)OCCO3)no1	-6%
CCn1c(=O)c(C(=O)NCc2ccc(OC)cc2)c(O)c2ccccc21	19%
CCOC(=O)c1sc(N)c(C#N)c1CSc1nnc(C2CCCCC2)n1N	-4%
Cc1ccc(C)c(NC(=O)CSc2nnc(CSc3nc(C)cc(C)n3)n2Cc2ccco2)c1	102%
O=C(NCc1ccco1)c1ccc2nc3sc4c(c3c(=O)n2c1)CCCC4	32%
CCCCN(C(=O)NC(=O)Nc1c(C)cc(C)cc1C)S(C)(=O)=O	-6%
CCOc1cc(C2C(C(=O)O)c3cc(OCC)c(OCC)cc3C(=O)N2C)ccc1O (centres undefined)	-8%

Laid out differently: results already given.
Structure,AmpC nodet inh
Cc1onc(-c2ccccc2Cl)c1C(=O)NCCn1c(C)cc2ccccc21,3%
CSc1cccc(NC(=O)COc2ccccc2)c1,-12%

Returning to the listing with the 3 entries that preceded the break.
SMILES	AmpC nodet inh
O=C(NCc1ccco1)c1ccc2nc3sc4c(c3c(=O)n2c1)CCCC4	32%
CCCCN(C(=O)NC(=O)Nc1c(C)cc(C)cc1C)S(C)(=O)=O	-6%
CCOc1cc(C2C(C(=O)O)c3cc(OCC)c(OCC)cc3C(=O)N2C)ccc1O (centres undefined)	-8%
Brc1ccccc1	-18%
O=C(O)c1cccc([As]=[As]c2cccc(C(=O)O)c2)c1 (centres undefined)	4%[5.75 µM]
COc1ccc2[nH]cc(CCNc3nc(-c4cccc(C#N)c4)nc4ccccc34)c2c1	?
CC(NC(=O)c1noc2c1CCCC2)c1ccccc1 (centres undefined)	-12%
CC(=O)Nc1ccccc1OCC(=O)c1ccc2c(c1)OCO2	-5%
CC(C)C(=O)Nc1cccc(NC(=O)c2cc3ccccc3o2)c1	0%
COC(=O)c1ccc(-c2nc(O)c3cnccn23)cc1	-11%
CC(=O)NC(CCS(C)(=O)=O)C(=O)Nc1ccc(Cl)c(Cl)c1 (centres undefined)	56%
Cc1c2ccccc2c(C)c2c1ccc1ccccc12	-16%
O=C(CN(Cc1ccc(F)cc1)C(=O)CCC(=O)Nc1ccccn1)NCc1ccco1	28%
CCc1ccccc1NC(=O)CC1S/C(=N\c2nccs2)N(CC)C1=O (centres undefined)	0%
Cn1c(C(=O)NCCc2ccsc2)cc2c(=O)n(C)c3ccccc3c21	57%
Cc1cc(Nc2ccccc2)n(CCOC(=O)COc2ccccc2)n1	74%
Cc1ccc(-n2c(SCc3nnc4n3CCC4)nnc2-c2ccccc2)cc1	18%
CC(C)c1ccc(NC(=O)c2cccnc2)cc1	14%
COc1ccc(OCCSc2nc3ccccc3n2CC(=O)O)cc1	-18%
N#CCCN(CCC#N)C(=O)c1ccc2c(c1)OCO2	-6%
CN(C)c1ccc(P(=S)(N(C)C)N(C)C)cc1	-3%
O=C(O)Cc1c[nH]c2ccc(O)cc12	-11%
COc1cccc(-c2nnc(N(C)C(=O)c3ccno3)s2)c1	6%
CS(=O)(=O)N(CC(O)Cn1c2ccccc2c2ccccc21)c1ccccc1 (centres undefined)	71%
COc1ccc(OCC(O)CON2C(=O)c3ccccc3C2=O)cc1 (centres undefined)	14%
O=CN1CCN(C(C(=O)NC2CCCC2)c2ccc(Cl)cc2)CC1 (centres undefined)	15%
CC1=CC(C)(C)N2C(=O)C3(C(C#N)=C(N)OC4=C3C(=O)CCC4)c3c(C)c(C)cc1c32 (centres undefined)	87%
CCC(Sc1nc2n[nH]c(C)c2c(=N)n1-c1cccc(Cl)c1C)C(=O)N(CC)CC (centres undefined)	-8%
CCCCNC(=O)CC1N=C2c3ccccc3N=C(SCC(=O)Nc3cccc(OC)c3)N2C1=O (centres undefined)	50%
O=C(CCN1C(=O)C2(OCCO2)c2ccccc21)c1ccccc1	14%
Cc1ccc(OP(=O)(Oc2ccc(C)cc2)Oc2ccc(C)cc2)cc1	-21%
COc1ccc(-n2c(SC3CCOC3=O)nc3ccccc3c2=O)cc1OC (centres undefined)	19%
c1cc2c(c(NCc3ccncc3)c1)CCCC2	18%
COc1ccc(C)cc1NC(=O)CSc1nnc(COc2ccccc2)n1Cc1ccco1	44%
N=C1C(c2nc3ccccc3c(=O)[nH]2)=C(O)CN1CCc1ccccc1	-7%
CC(C)NC(=O)N1CCC2(CC1)CCN(S(C)(=O)=O)CC2	129%
O=C(CCC(=O)N(c1cccc(F)c1)C(C(=O)NC1CCCC1)c1ccncc1)Nc1cccnc1 (centres undefined)	48%
Cn1c(=O)c2c(nc(NCC3CCCO3)n2C)n(C)c1=O (centres undefined)	10%
CCOC(=O)c1c(N)c(C#N)nn1-c1ccccc1C(=O)OC	-1%
CC(=O)N1CCN=C1SCc1ccccc1F	7%
CCCC(=O)Nc1nc2ccc(S(N)(=O)=O)cc2s1	-11%
Cc1c(O)ccc(C(=O)CN2C(=O)c3ccccc3C2=O)c1O	-11%
O=C1C2CCCN2C(c2ccc(Cl)c(Cl)c2)N1c1ccccn1 (centres undefined)	17%

Three structures already listed, sorted by molar mass, highest first.
SMILES	AmpC nodet inh
O=C(CCC(=O)N(c1cccc(F)c1)C(C(=O)NC1CCCC1)c1ccncc1)Nc1cccnc1 (centres undefined)	48%
O=C1C2CCCN2C(c2ccc(Cl)c(Cl)c2)N1c1ccccn1 (centres undefined)	17%
CC(C)NC(=O)N1CCC2(CC1)CCN(S(C)(=O)=O)CC2	129%

(continued)
SMILES	AmpC nodet inh
Cc1ccc(CS(=O)(=O)CCC(=O)N2CCC3(CC2)OCCO3)cc1	12%
CN1CCN(Cc2nc3c(c(=O)[nH]c(=O)n3C)n2Cc2c(F)cccc2Cl)CC1	13%
O=C(CSc1nnc(-c2ccc(Br)cc2)o1)Nc1cccc2ccccc12	?
CC(=O)N(Cc1cccnc1)Cc1cc2ccccc2[nH]c1=O	0%
Nc1nc2c(c(=O)[nH]1)CN(CCCN1CCOCC1)CN2	8%[5.75 µM]
O=C(c1noc2c1CCc1ccccc1-2)N1CCOCC1	18%
C=CCNS(=O)(=O)c1ccc(OCC(=O)OC)cc1	-5%
CC(=O)N1C(=O)N(C(C)=O)C2C1N(C(C)=O)C(=O)N2C(C)=O (centres undefined)	0%
N[C@@H](C(=O)O)[C@H](CC(=O)O)c1ccc(Cl)cc1	37%
COc1ccc(S(=O)(=O)N2Cc3ccccc3CC2C(=O)N2CCOCC2)cc1OC (centres undefined)	46%
Cc1cccc(OCc2nnc3n2CCCCC3)c1	11%

Some of the compounds tested, so the mix of outcomes need not match the whole.
